WNV protease inh: blocks West Nile virus NS2B-NS3 protease activity; z-score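 (tested at a level between 10 and 100 µM)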; P06935; 65,000 compounds, 0.18% hits; WNV NS2B-NS3 protease, fluorogenic substrate Ex360/Em465; active compounds read low;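 active = z-score at -3 or under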;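 also: score is relative to mean and spread of the compound wells of a plate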
Target sequence (P06935 1371-1501 limits assumed): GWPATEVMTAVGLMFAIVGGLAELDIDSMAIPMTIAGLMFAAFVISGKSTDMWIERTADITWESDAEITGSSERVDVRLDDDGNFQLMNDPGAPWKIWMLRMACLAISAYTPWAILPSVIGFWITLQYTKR
Target sequence (P06935 1502-1679 limits assumed): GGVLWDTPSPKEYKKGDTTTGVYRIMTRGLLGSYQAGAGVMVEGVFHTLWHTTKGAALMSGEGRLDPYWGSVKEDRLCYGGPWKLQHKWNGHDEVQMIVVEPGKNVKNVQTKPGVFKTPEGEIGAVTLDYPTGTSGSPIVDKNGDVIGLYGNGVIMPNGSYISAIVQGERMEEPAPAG
MT1-MMP reporter: MT1-MMP gene expression reporter suppression – cell-based, luciferase reporter, luminescence (AID 618); MT1-MMP promoter luciferase reporter cells, luminescence; calls from a first round at 10 µM; hits with a dose series show EC50 in µM; 87,000 compounds, 0.62% hits;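 active = over half of the reporter light lost at 10 µM or EC50 under 50 µM; inactive = the rest and hits that failed the dose series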;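 also: actives suppress MT1-MMP promoter-driven transcription so potencies describe inhibitors; HT1080 fibrosarcoma cells; overnight exposure; toxic or luciferase-blocking compounds were not removed from the actives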
Hsc70: Hsc70 inhibitors, probe displacement, primary screen, biochemical, fluorescence polarization (AID 568) | Hsc70 fluorescence polarization, probe displacement; higher % means a stronger effect; strong numbers were not always called active | displacement, % at 20 µM; hits with a dose series show IC50 in µM | 83,000 tested, under 10 active;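 active = displacement above 50% without optical interference and an IC50 on retest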;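 also: ATPase domain with a fluorescein-tagged ATP probe; 0% = vehicle and 100% = excess ADP; read after one hour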
Numbers without * were called inactive; i = inactive; x = no result given. Not all compounds are listed; the hit share may differ from the screen's.

Screens in order: WNV protease inh	MT1-MMP reporter	Hsc70
COC(=O)C1=C(C)NC(=O)C1(NC(=O)CN1CCCC1=O)C(F)(F)F (stereo unspecified)
→ 0.69	i	1.8%
COc1cccc(N2C(N)=NC(N)=NC2(C)C)c1
→ 1.32	i	-0.5%
O=C(Cn1c(NCCCO)nc2ccccc21)c1ccco1
→ 0.47	i	3.0%
CC1=C(C(=O)Nc2cc(-c3cccc(F)c3)[nH]n2)C2(CCCCC2)OC1=O
→ 0.5	i	1.9%
CCOC(=O)N1CCN(C(=O)CCCn2nc(C)c3sc4ccccc4c3c2=O)CC1
→ -0.23	i	0.1%
CC(=O)N(CCCN(C)C)CCC(C)CCC=C(C)C (stereo unspecified)
→ -0.45	i	-1.7%
Cc1cc2oc(C(=O)Nc3cccnc3)c(C)c2cc1C
→ 2.3	i	0.0%
COc1ccc(N2CC(C(=O)NCc3ccccc3)CC2=O)cc1 (stereo unspecified)
→ -0.31	i	4.0%
CCCNC(=O)N(C)c1nncnc1C(=O)NC
→ 0.94	i	0.3%
Cc1ccc(CSCC(Nc2ccc(C(=O)O)cc2[N+](=O)[O-])C(=O)O)cc1 (stereo unspecified)
→ x	i	0.6%
Cc1ccc(C2C3=C(CC(C)(C)CC3=O)N(CCN3CCOCC3)C3=C2C(=O)CC(C)(C)C3)cc1
→ 0.59	i	6.9%
O=C(COC(=O)c1cnccn1)Nc1ccc(Cl)cc1
→ -0.73	i	-3.7%
O=C1C(O)CC2c3ccccc3CC3(CCCC3)N12 (stereo unspecified)
→ 0.2	i	-1.5%
CC1CCCCC1NC(=O)c1nn(C)c(=O)c2ccccc12 (stereo unspecified)
→ -0.44	i	-4.6%
COc1cccc(C(=O)Nc2nnc(-c3cccs3)o2)c1
→ -0.22	i	0.7%
Cc1[nH]n2c(=O)cc(C(C)C)nc2c1-c1ccccc1
→ -0.9	i	-7.2%
CCOC(=O)C1CCN(C(=O)c2cc3c(-c4ccc(OC)c(OC)c4)nn(C)c3s2)CC1
→ 0.41	i	6.0%
CCOC(=O)N1CCN(C(=O)c2ccc3c(=O)n(Cc4ccccc4OC)c(=S)[nH]c3c2)CC1
→ x	i	-1.8%
COc1ccc(-c2nc(-c3ccc(Br)o3)no2)cc1OC
→ -1.07	i	-0.1%
Cc1cc(=O)[nH]c2c(C)c(N)ccc12
→ 1.44	i	6.3%

Three entries picked at random from the list so far:
Screens in order: WNV protease inh	MT1-MMP reporter	Hsc70
CCOC(=O)C1CCN(C(=O)c2cc3c(-c4ccc(OC)c(OC)c4)nn(C)c3s2)CC1
→ 0.41	i	6.0%
O=C(COC(=O)c1cnccn1)Nc1ccc(Cl)cc1
→ -0.73	i	-3.7%
COc1cccc(C(=O)Nc2nnc(-c3cccs3)o2)c1
→ -0.22	i	0.7%

Continuation:
Screens in order: WNV protease inh	MT1-MMP reporter	Hsc70
CC(=O)NC1(C(F)(F)F)C(=O)Nc2c1c(=O)n(C)c(=O)n2C (stereo unspecified)
→ -0.37	i	0.0%
CCC(=O)Nc1c2c(nn1-c1ccc(F)cc1)CS(=O)C2 (stereo unspecified)
→ -1.12	i	4.7%
Cc1ccccc1OCCCN1CCCC1
→ -1.2	i	-3.6%
CCNC(=O)CSc1nc2ccccc2c(=O)n1OC
→ 1.12	i	-5.2%
O=C(COc1ccc(Cl)cc1)N1CCCC1
→ x	i	-1.4%
COc1ccc(C2=NOC(C(=O)NCc3ccc(F)cc3)C2)cc1OC (stereo unspecified)
→ 0.48	i	0.6%
C[C@H](N)c1nnc(SCc2ccc(Cl)cc2Cl)o1
→ -0.02	i	-1.8%
Clc1ccccc1-c1nnc2sc(-c3ccc4c(c3)OCO4)nn12
→ -0.66	i	3.9%
COC(=O)c1cc2c(=O)n3ccccc3nc2n(C(C)C)c1=N
→ 4.89	i	-1.9%
O=C(O)c1ccccc1C(=O)Nc1n[nH]c(=S)s1
→ -0.86	i	-5.7%

Complete entries as entered above.
CC(=O)N(CCCN(C)C)CCC(C)CCC=C(C)C (stereo unspecified) is listed as WNV protease inh: -0.45; MT1-MMP reporter: i; Hsc70: -1.7%
Cc1ccc(C2C3=C(CC(C)(C)CC3=O)N(CCN3CCOCC3)C3=C2C(=O)CC(C)(C)C3)cc1 is listed as WNV protease inh: 0.59; MT1-MMP reporter: i; Hsc70: 6.9%

(next part)
Screens in order: WNV protease inh	MT1-MMP reporter	Hsc70
O=C(NCc1cccnc1)c1c(F)c(F)c(F)c(F)c1F
→ 0.25	i	3.9%
Cc1cc(C)c(S(=O)(=O)N(C)Cc2cnn(C)c2)c(C)c1
→ -0.74	i	2.8%
CC(C)C12CN3CC(C(C)C)(CN(C1)C31C(=O)Nc3ccccc31)C2=O (stereo unspecified)
→ -0.57	i	-1.4%
O=C(CSc1nnc(Cc2ccccc2)o1)Nc1ccc(Br)cn1
→ -0.38	i	3.8%
O=C(O)CCCCNCc1ccccc1
→ x	i	-4.2%
Cc1ccc(-c2nnc(SCC(=O)Nc3ccc(S(=O)(=O)N4CCCCCC4)cc3)o2)cc1
→ -0.88	i	-0.1%
CCCn1c(NC(=O)c2ccc(Cl)c(S(=O)(=O)N3CCCC3)c2)nc2ccccc21
→ 2.04	i	-21.5%
CCOC(=O)C(C(C)=O)=C1SC2CS(=O)(=O)CC2S1 (stereo unspecified)
→ -1	i	1.9%
CCc1c(C(C)S(=O)(=O)c2ccc(C)cc2)[nH]c(=O)n1-c1ccc(OC(F)(F)F)cc1 (stereo unspecified)
→ x	i	4.6%
O=P(c1ccccc1)(c1ccccc1)C(c1ccco1)N1CCOCC1 (stereo unspecified)
→ -0.97	i	-5.0%
O=C(Cn1nnc(-c2ccc3c(c2)OCO3)n1)N1CCOCC1
→ 0.37	i	0.4%
COc1ccccc1N1CCN(S(=O)(=O)c2ccccc2F)CC1
→ -1.44	i	-2.6%
Fc1cc(F)cc(-c2oncc2-c2nnnn2-c2ccccc2)c1
→ x	i	-4.7%
CCOC(=O)Nc1cc2c(C)cc(=O)oc2cc1C
→ -1	i	-4.1%
CC(=O)OC(C)C[N+](C)(C)C (stereo unspecified)
→ -0.17	i	-2.8%
CCOC(=O)C1=C(C)Nc2ccccc2N=C1NC(=O)CCCN1C(=O)c2ccccc2C1=O
→ 0.89	i	1.8%
Cc1ccc(Cn2c(Sc3nnc(C)s3)nc3c2c(=O)[nH]c(=O)n3C)cc1
→ -1.12	i	-1.0%
O=c1cc2n(c(=O)[nH]1)CCC1=C2CCCC1
→ -0.81	i	7.8%
CCOC(=O)C1=C(C)NC(C)=C(C(=O)OCC)C1C1=COCCO1
→ -1.63	i	0.6%
N#Cc1c(N)n(CCOC(=O)c2ccc(Cl)cc2)c2nc3ccccc3nc12
→ 1.26	i	-11.7%
CC(C)(C)C(=O)Nc1nc(-c2ccc3c(c2)OCO3)cs1
→ x	i	-2.2%
Cc1nnc(SCC(=O)Nc2nc3c(s2)CC(C)CC3)s1 (stereo unspecified)
→ -1.89	i	-2.5%
COc1ccc(-n2c(SCC(=O)Nc3sc4c(c3C#N)CCCC4)nnc2-c2ccc(O)cc2)cc1
→ x	i	4.3%
COC(=O)c1cn(CC(=O)N2CCCCCC2)c2ccccc12
→ 0.31	i	10.4%
Cc1noc(C)c1COC(=O)CCOc1ccccc1
→ -0.47	i	4.6%
Cc1ccc(N2C(=O)c3ccccc3C2Nc2ccccc2F)nc1 (stereo unspecified)
→ -1.53	i	0.0%
COCC(=O)NCCNc1nc2ccc(C)cc2cc1C
→ 1.38	i	-9.7%
COc1ccccc1N1CCN(C(=O)CSc2nnc(NC(=O)c3ccco3)s2)CC1
→ 0.16	i	6.1%
CCc1ccccc1NC(=O)Cn1nnc(-c2cccnc2)n1
→ -0.55	i	-0.1%
CCCCN(Cc1ccccc1)c1ncnc2nc[nH]c12
→ 0.35	i	4.0%
COc1ccc(S(=O)(=O)N2CCN(CCC(=O)Nc3ccc(F)cc3)CC2)cc1
→ x	i	3.4%
COc1ccccc1-c1cc(C(=O)Nc2ccc(F)cc2F)no1
→ 0.88	i	-0.5%
COc1ccc(-c2noc(CCC(N)=O)n2)cc1OC
→ 0.16	i	1.5%
CCOC(=O)c1c(-n2cnnn2)sc(C)c1C
→ 0.03	i	1.6%
CCOC(=O)N1CCN(C2OC(=O)c3ccccc32)CC1 (stereo unspecified)
→ -0.7	i	2.6%
Cc1cccc(OCc2nnc(SCC(=O)Nc3ccc(C)c(C)c3)o2)c1
→ 1.56	i	1.7%
C=CCn1c(O)c(CN2CCOCC2)c(C)c(C#N)c1=O
→ -1.8	i	-0.2%
COc1cccc(C(=O)Nc2cccnc2)c1
→ x	i	6.4%
COc1ccc(-c2nc(NC(=O)Cn3ccc(C(F)(F)F)n3)sc2C)cc1
→ x	i	1.6%
CCOC(=O)c1sc(=NC(=O)c2cccc(OC)c2)n(C)c1C
→ -1.34	i	-6.8%
Cn1c(C(=O)NCc2ccco2)cc2c(=O)[nH]c3ccccc3c21
→ 0.84	i	2.5%
Cc1ccc(-n2ncc3c(=O)n(CC(=O)NCc4ccco4)cnc32)cc1
→ 0.45	i	-9.1%
COC(=O)Cn1nnc(-c2cccc(OC)c2)n1
→ -0.11	i	-2.5%
COc1ccc(CCNC(=O)c2cc3sc(Cl)cc3n2C)cc1OC
→ 0.4	i	3.0%
COC(CNc1cc(=O)oc2ccccc12)OC
→ x	i	4.2%
COc1ccc(Cc2nc(C(=O)Nc3ccccc3)cs2)cc1
→ x	i	-3.2%
O=C(O)CCCn1c(=O)[nH]c2ccccc2c1=O
→ -0.46	i	-7.0%
O=C1C(c2ccnc3ccccc23)=C(O)c2ccccc21
→ x	i	-27.6%
O=C(CSc1nnc(Cc2cccs2)n1-c1ccc(Cl)cc1)NCc1ccc2c(c1)OCO2
→ x	i	-4.4%
CCN(CC)C(=O)CSc1nnc([C@H](CCSC)NC(=O)OC(C)(C)C)o1
→ 0.05	i	0.8%

The list continues.
Screens in order: WNV protease inh	MT1-MMP reporter	Hsc70
O=P(/C(=N/O)Sc1ccccc1)(N1CCOCC1)N1CCOCC1
→ -0.4	i	-1.6%
CC(C)c1nnc(NC(=O)c2cccc(-n3cnnn3)c2)s1
→ 0.08	i	2.0%
O=C(CN1CCCC1)NCC1(c2ccccc2)CCOCC1
→ 2.03	i	8.1%
COCCN1C(=O)/C(=C/c2ccc(Oc3ccc([N+](=O)[O-])cn3)c(OC)c2)SC1=Nc1ccccc1
→ x	i	1.1%
CC1=CC(C#N)(C#N)C(C#N)(C#N)C(c2ccccc2)N1 (stereo unspecified)
→ -0.09	i	41.1%
C=CCn1c(SCC(=O)Nc2nc(C)cs2)nnc1C(C)NC(=O)c1ccccc1Cl (stereo unspecified)
→ x	i	6.9%
CC(=O)Nc1ccc(N=Cc2ccc[nH]2)cc1
→ -0.3	i	2.4%
Cc1ccc(C(C)C)c(OCCCN2C(=O)NC(C)(C)C2=O)c1
→ x	i	-1.3%
COC(=O)C1=C(C)NC(=O)C1(NS(=O)(=O)c1ccc(NC(C)=O)cc1)C(F)(F)F (stereo unspecified)
→ x	i	-4.5%
Cn1c(SCC(=O)NCCc2ccccc2)nnc1-c1ccncc1
→ 2	i	-1.4%
Cc1cc(NC(=O)CSc2nnc(Cc3cccn3C)n2CCc2ccccc2)no1
→ 0.59	i	-3.8%
CCc1[nH]nc2c1C(c1ccncc1)C(C#N)=C(N)O2 (stereo unspecified)
→ 0.71	i	0.1%
C=CCn1c(SCC(N)=O)nnc1-c1ccccc1O
→ -0.37	i	5.2%
COC(=O)Nc1nc2ccc(Sc3ccccc3)cc2[nH]1
→ 0.99	i	-1.9%
CC(C)(C)c1ccc(-c2conc2N)cc1
→ -0.34	i	-5.8%
CC(C)(NO)/C(=N\O)c1ccc(Cl)cc1
→ x	i	0.8%
O=C(Nc1ccc(N2CCOCC2)c(Cl)c1)c1ccccc1F
→ x	i	0.6%
O=C(Cn1ncn2c(cc3ccccc32)c1=O)NCCC1=CCCCC1
→ 1.87	i	-2.2%
CC1(C)C(=O)Nc2ccccc2N1C(=O)COc1ncnc2ccccc12
→ -0.98	i	1.3%
O=S1(=O)CCN=C2SC3=C(CCCC3)N21
→ -0.25	i	3.2%
CCOC(=O)C1CCCN(c2nc3ccccc3nc2C(C#N)C(=O)OCCOC)C1 (stereo unspecified)
→ -0.43	i	-11.4%
COCc1nnc(NC(=O)c2ccc(NC(C)=O)cc2)s1
→ -0.6	i	4.0%
COc1ccc(C(CNC(=O)C2CC(=O)N(Cc3ccc(C)cc3)C2)N(C)C)cc1 (stereo unspecified)
→ -0.14	i	3.4%
COc1cc(-c2nc(-c3cccc(C)c3)no2)cc(OC)c1OC
→ -0.27	i	-0.2%
CCN(Cc1ccccc1)C(c1ccccn1)c1nnnn1C(C)(C)CC (stereo unspecified)
→ 1.15	i	1.0%
CCC(=O)N1CCc2cc(S(=O)(=O)CCC(=O)Nc3cccc(F)c3)ccc21
→ 0.43	i	-2.6%
COC(=O)CCS(=O)(=O)c1nc(-c2ccccc2)cc(C(F)(F)F)n1
→ x	i	0.2%
Cc1sc2ncnc(NCC3CCCO3)c2c1C (stereo unspecified)
→ x	i	-1.1%
CC12CC(c3ccccc3O1)N(C(=O)c1ccco1)C(=O)N2c1ccccc1 (stereo unspecified)
→ -0.57	i	-0.6%
c1ccn2cc(CSC3=NCCS3)nc2c1
→ 1.19	i	-3.3%
CCOC(=O)c1cnn(-c2cc(C)c3ccccc3n2)c1N
→ -1.16	i	1.9%

High-throughput results (PubChem BioAssay)
